RGS16-Gao: modulates binding between human RGS16 and Galphao; O15492+P09471; bead-based flow cytometry RGS16-Galphao binding, fluorescence; actives lie on both sides; binding response (% of control), % at 10 µM; actives 0.38% (n = 220,000); AID 1441;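 active means below 25% or above 175%, edge rows of some plates excepted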;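 further: Galphao activated by GDP with aluminum fluoride before binding; 100% = wells without compound and 0% = beads without RGS; some results beyond the cut were filed as inactive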
HSV augment: HSV replication enhancement | HSV replication augmentation in cells, fold increase | maximum fold increase | actives 0.005% (n = 220,000);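 active means peak rise of 1.5-fold or more in the series; inconclusive means self-fluorescent or not available for retest; tested in PC3 cells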;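 further: first round at 10 µM; read as green reporter fluorescence; hits show the peak of a series up to 25 µM; 1 = signal of infected wells without compound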
PKD1 kinase inh: inhibitors of human PKD1 kinase; Q15139; PKD1 kinase fluorescence polarization assay; inhibition, %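 (about 10 µM by stock and volumes)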; actives 0.056% (n = 200,000);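 active means inhibition of 50% or more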;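 further: controls were vehicle for no effect and a reference inhibitor for full effect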
Target sequence (Q15139 whole entry, looked up): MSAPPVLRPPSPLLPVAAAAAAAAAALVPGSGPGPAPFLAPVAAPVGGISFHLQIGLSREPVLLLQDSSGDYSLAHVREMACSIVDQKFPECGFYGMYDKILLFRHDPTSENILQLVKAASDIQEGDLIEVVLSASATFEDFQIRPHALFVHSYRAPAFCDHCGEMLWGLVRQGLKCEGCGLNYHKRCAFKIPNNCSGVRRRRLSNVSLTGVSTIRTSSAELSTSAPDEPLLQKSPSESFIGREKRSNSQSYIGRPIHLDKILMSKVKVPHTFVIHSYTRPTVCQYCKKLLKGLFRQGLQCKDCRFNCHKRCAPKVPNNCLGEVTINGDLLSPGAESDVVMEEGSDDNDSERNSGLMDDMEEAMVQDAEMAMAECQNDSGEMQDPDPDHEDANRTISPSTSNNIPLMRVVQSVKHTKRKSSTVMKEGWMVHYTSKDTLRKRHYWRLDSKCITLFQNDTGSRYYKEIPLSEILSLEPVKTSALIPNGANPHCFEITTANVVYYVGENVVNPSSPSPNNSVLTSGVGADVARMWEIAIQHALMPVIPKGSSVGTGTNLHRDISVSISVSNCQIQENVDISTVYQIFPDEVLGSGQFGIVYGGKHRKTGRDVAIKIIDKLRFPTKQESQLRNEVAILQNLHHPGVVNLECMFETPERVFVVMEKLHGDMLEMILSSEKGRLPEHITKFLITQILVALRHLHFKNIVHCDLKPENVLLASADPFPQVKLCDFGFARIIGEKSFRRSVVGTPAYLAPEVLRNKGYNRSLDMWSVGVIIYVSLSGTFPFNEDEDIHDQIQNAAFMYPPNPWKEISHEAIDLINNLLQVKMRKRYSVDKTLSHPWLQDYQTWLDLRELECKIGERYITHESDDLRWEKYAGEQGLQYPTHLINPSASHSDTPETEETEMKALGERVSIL
GALR2 ag: agonists of human galanin receptor 2 (GALR2) | activation, %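 (tested at 5 µM)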 | actives 0.48% (n = 140,000) | GALR2-expressing cells, agonist activation read-out | O43603;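 active means above mean plus 3 SD of all compounds, about 5% in these data, not always enough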;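 further: 0% = vehicle buffer wells and 100% = reference agonist at full effect; tested in CHO reporter cells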
Insulin prom inh: TRM-6 insulin promoter activity inhibition; TRM-6 cells (human fetal islet line), insulin promoter-eGFP reporter, imaging; reporter expression induced with tamoxifen; inhibition, % at 2 µM; actives 0.9% (n = 130,000); AID 1273;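 active means inhibition above the mean plus 3 SD, with well images judged a real hit on visual review, cut at about 60% in these data, passing the limit was not always enough; inconclusive means inhibition over the cutoff but images rejected on review; inactive means inhibition not above the cutoff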
Insulin prom inh cell count: also measured in Insulin prom inh; calls as there; normalized cell count, %; measured here: cell count, toxicity; reference of the scale not given here;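 cells exposed to compound for 48 h; stained nuclei by imaging scaled within each plate; lower means fewer cells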
HSV augment primary fold: second read-out of HSV augment, no call of its own (marks repeat the call); fold increase; compound at 10 µM; measured here: primary screen fold increase 10 uM; tested in PC3 cells;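 GFP signal in the first replicate; 1 = infected wells without compound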
Numbers without * were called inactive; i = inactive; ? = inconclusive; nt = no result given.

SMILES	RGS16-Gao	HSV augment	HSV augment primary fold	PKD1 kinase inh	GALR2 ag	Insulin prom inh	Insulin prom inh cell count
CCCC(C1=C(O)CC(C)(C)CC1=O)C1C(=O)CC(C)(C)CC1=O (stereo unspecified)	61	i	0.93	-7	-1.9	46	142
O=C(Nc1ccc(CSc2ccccc2)cc1)c1ccc(CN2CCOCC2)cc1	89	i	0.86	-2	-2.4	24	144
Cc1[nH]c(=O)[nH]c(=O)c1S(=O)(=O)NCCc1ccc(S(N)(=O)=O)cc1	112	i	0.97	-2	-0.5	-19	104
COc1ccc(C(C#N)N2N=C(c3ccccc3)CC2c2ccccc2)cc1OC (stereo unspecified)	102	i	1.3	9	-0.9	22	79
CC(=O)NNC(=O)c1csc(Cc2c(Cl)sc3ccc(Cl)cc23)n1	72	i	1.1	nt	nt	nt	nt
N#C/C(=C/c1ccc(N2CCCCC2)o1)C(=O)Nc1ccc(Cl)cc1	135	?	nt	-2	-3.6	-270	112
COc1ccc(NC(=O)C2CCC(N3C(=O)C4C5C=CC(C5)C4C3=O)CC2)cc1 (stereo unspecified)	107	i	0.84	-1	-0.7	14	204
CC1(C)CC(O)C(C)(C)N1O (stereo unspecified)	98	i	1	-2	-1.7	nt	nt
CCc1c(C)nc(SCc2ccccn2)[nH]c1=O	98	i	0.93	-13	nt	11	106
CCOc1ccc2[nH]c(=O)c(CN(Cc3cccs3)Cc3nnnn3C(C)(C)CC)cc2c1	105	i	1	2	-0.8	nt	nt
COC(=O)c1ccc2c(c1)N(C)C(=O)CS2	107	i	0.85	-4	-2.5	i	73
CCCn1nnnc1NC(=O)c1ccc2ccccc2c1	86	nt	nt	13	-1.9	nt	nt
Cc1cc(C)cc(OCC(=O)OCC(=O)NCc2ccco2)c1	100	i	0.86	-8	0.5	22	80
CCOC(=O)c1ccc(NC(=O)CC2C(=O)N(c3ccc(F)cc3)C(=O)N2CCCOC)cc1 (stereo unspecified)	101	i	0.93	9	-0.3	9	110
Cc1noc2ncnc(Sc3c(Cl)cccc3Cl)c12	102	i	0.86	3	-2.5	6	113
COc1ccc(CN2CC(C(=O)NCc3ccccn3)CC2=O)cc1 (stereo unspecified)	104	i	0.94	-2	-2.6	-41	114
O=C(NC1CC1)c1ccc(CN(c2ccccc2)S(=O)(=O)c2ccccc2)cc1	99	i	1.1	-1	nt	24	130
CCN(Cc1cc2ccc(C)cc2[nH]c1=O)C(=O)c1cccnc1	109	i	1	-8	-0.6	nt	nt
Cc1nc(-c2noc(-c3cccc(Cl)c3)n2)c(C(F)(F)F)o1	97	i	1.1	nt	nt	nt	nt
Cc1ccc(-c2nn(C)c(=O)c3ccccc23)cc1CNC(=O)c1ccccc1	101	i	0.97	nt	nt	nt	nt
CCOC(=O)c1cc2[nH]c3ccccc3c2[n+](-c2ccc([N+](=O)[O-])cc2)c1N	87	i	0.91	-11	-1.4	6	71
CC(C)c1nnc(SCC(=O)Nc2ccc3c(c2)OCO3)n1C	80	i	0.86	-8	-0.6	-338	81
O=C(Cn1cnc2ccccc2c1=O)c1ccc2ccccc2c1	93	i	0.87	-13	-2.6	48	55
Cc1cccc(C(=O)NN2S(=O)(=O)c3ccccc3S2(=O)=O)c1	98	i	0.94	1	nt	-8	105
CN(C)C(=S)Nc1ccc([N+](=O)[O-])cc1	98	i	1.1	-8	-0.9	-10	101

Next entries
SMILES	RGS16-Gao	HSV augment	HSV augment primary fold	PKD1 kinase inh	GALR2 ag	Insulin prom inh	Insulin prom inh cell count
CC(C)Oc1cccc(C(=O)NC(=S)Nc2ccc3c4c(cccc24)CC3)c1	102	i	1.1	0	-2.2	-7	94
CC1CCN(CCCCOc2ccc(C(=O)c3ccccc3)cc2)CC1	90	i	0.97	-7	-1.9	-6	101
O=C(O)CNC(=O)CC1S/C(=N/N=C/c2ccccc2O)NC1=O (stereo unspecified)	117	i	0.91	1	nt	21	72
CCC(C)N1C(=O)CCC1C(=O)N1CCN(c2ccccc2F)CC1 (stereo unspecified)	94	i	0.78	1	-4.0	11	107
O=[N+]([O-])c1ccc(-c2csc3[n+]2CCS3)cc1	97	i	0.98	0	0.6	-17	87
CCc1cc2cc3c(cc2nc1SCC(=O)Nc1cc(C)on1)OCO3	97	i	0.97	1	-1.9	nt	nt
COc1ccc(N=C/C=C2\C=C(c3ccccc3)OC(C)(C)O2)cc1	98	i	0.83	0	-1.3	-62	110
CCOC(=O)c1c(NC(C)=O)sc2c(O)cccc12	102	i	0.93	-1	-0.5	52	107
Cc1cc(C(=O)Nc2ccc(F)cc2C)n(-c2ccccc2)n1	99	i	1.1	nt	nt	nt	nt
CCCCNC(=O)C1CCCN1C(=O)NC1CCCCC1 (stereo unspecified)	100	i	0.94	-4	-2.2	-179	53
CN(C)C=Nc1c(C(=O)c2ccccc2)sc2nccc(N(C)C)c12	118	i	1.1	-6	0.1	-21	94
CC1CC(C)CN(C(=O)c2ccncc2)C1 (stereo unspecified)	102	i	1	4	-0.2	17	133
O=C(O)c1cccnc1SCc1cn2cc(Cl)ccc2n1	94	i	0.88	nt	nt	nt	nt
CCOC(=O)c1nn(-c2ccccc2)c2nnc(Cc3ccccc3)c(=O)n12	105	i	1	-11	-0.2	8	144
COc1ccc(N2C(=O)CSC2c2ccc3c(c2)OCO3)c(OC)c1 (stereo unspecified)	97	i	0.83	-2	-0.2	-26	117
O=C(c1ccc(F)cc1)N1CCN(c2ccc([N+](=O)[O-])c(N3CCCCC3)c2)CC1	98	i	0.84	4	-0.1	45	166
Cc1oc(-c2cccs2)nc1CN1CCC(c2ccccc2)CC1	99	i	0.95	-3	nt	nt	nt
c1ccc(Cn2nnnc2C(c2ccccc2)N2CCN(c3nc4ccccc4s3)CC2)cc1 (stereo unspecified)	47	i	0.99	-17	-2.7	nt	nt
COc1cc(/C=N/N=C2/C(=O)Nc3ccccc32)cc(OC)c1O	104	i	0.57	-1	-1.1	-23	104
Cc1cccc(NC(=O)c2ccc(CN3CCN(Cc4ccccc4)CC3)cc2)c1	112	i	1.1	-10	nt	nt	nt
COc1ccc(NC(=O)CC2C(=O)N(C)C(=S)N2Cc2ccncc2)cc1 (stereo unspecified)	103	i	0.88	-4	nt	nt	nt
O=S(=O)(c1ccc(NC(=S)N/N=C/c2cccc(Oc3ccccc3)c2)cc1)N1CCOCC1	102	i	0.97	-5	nt	nt	nt
O=C(Oc1cccc2c(=O)[nH]ccc12)c1ccccc1	101	i	1.1	7	-1.4	nt	nt
CCOC(=O)C(C)(C)N(Cc1cccc(C)c1)S(=O)(=O)c1ccc(Cl)c([N+](=O)[O-])c1	67	i	0.64	2	-0.8	nt	nt
CCCCC(=O)Nc1cc(OCC)c(NC(=O)c2ccccc2[N+](=O)[O-])cc1OCC	102	i	0.9	0	-1.9	nt	nt

Going on with the list.
SMILES	RGS16-Gao	HSV augment	HSV augment primary fold	PKD1 kinase inh	GALR2 ag	Insulin prom inh	Insulin prom inh cell count
COc1ccccc1CNC(=O)COC(=O)/C=C/c1cccs1	65	i	1.1	-3	-0.8	14	90
CN(C)CC(O)COc1cccc(OCC(O)CN(C)C)c1 (stereo unspecified)	105	nt	nt	-13	-3.0	nt	nt
O=C1c2ccccc2C(=O)N1CCCCN(C(=O)c1ccc([N+](=O)[O-])cc1)c1ccc(Cl)cc1	92	i	1.1	3	-3.8	-38	90
O=C(Cc1ccccc1)N1CCC(c2nc3ccccc3[nH]2)CC1	101	i	1.3	-6	-1.5	7	90
CCC(C)(C(=O)NC1CCCCC1)N(Cc1ccco1)C(=O)CNC(=O)c1ccccc1 (stereo unspecified)	48	i	0.93	-6	-1.1	-65	85
COc1ccc(/C=C/C(=O)c2ccc(OC)cc2OC)c(OC)c1	106	i	0.82	13	nt	nt	nt
O=C(O)c1cc(N/N=C/c2ccncc2)ccc1Cl	101	i	1.4	nt	nt	nt	nt
COc1ccc(N2CCCn3c2nc2c3c(=O)n(Cc3ccc(C)cc3)c(=O)n2C)c(OC)c1	100	i	1	2	nt	nt	nt
C=C(C)c1cccc(C(C)(C)NC(=O)NCCN(CC)CC)c1	100	i	0.97	-1	nt	nt	nt
COc1ccc(C(=O)C2CCCN(C(=O)c3cccnc3SC)C2)c(C)c1 (stereo unspecified)	68	i	1	-3	nt	nt	nt
COc1ccccc1CN1C(=O)[C@@H]2C(CCC(N)=O)NC3(C(=O)Nc4c3ccc(Cl)c4C)[C@@H]2C1=O (stereo partly specified)	125	i	0.8	-4	-1.6	71*	86*
O=C(CSc1ccc([N+](=O)[O-])cc1)NCC1CCCCC1	97	i	0.98	0	nt	nt	nt
CCOc1ccc(/C=N/NC(N)=S)cc1	101	i	1	-11	-1.5	nt	nt
Cc1ccc(NC(=O)C(=S)NCc2ccco2)cc1	109	i	0.95	2	-1.1	13	119
CC(C)(C)c1cc(NC(=O)COc2ccc(Br)cc2)n(-c2ccccc2)n1	100	i	0.99	-10	-0.4	nt	nt
CCN(Cc1cnn(C)c1)Cc1nc(C2(c3ccc(C)cc3)CCCC2)no1	108	i	1	0	nt	nt	nt
CC(C)(O)C1Cc2cc(/C=C/C(=O)O)c(O)cc2O1 (stereo unspecified)	102	i	0.98	-7	nt	nt	nt
O=C(CCS(=O)(=O)c1cccc2nsnc12)NCc1ccccc1Cl	96	i	0.99	-7	-1.7	-33	76
COc1cccc(C2C3=C(N=c4s/c(=C\c5ccccc5O)c(=O)n42)c2ccccc2CC3)c1OC (stereo unspecified)	103	i	1.2	1	nt	35	106
Clc1ccc(-c2cc(CSc3cccc(Cl)c3)on2)cc1	102	i	0.94	3	1.1	nt	nt
CN(C)CCNC(=O)/C=N/O	102	i	1.2	1	-0.3	nt	nt
COC(=O)c1nc2nc(C)cc(C(F)(F)F)n2n1	104	i	1	4	-1.2	0	92
Cc1cc(C(=O)NNC(=O)C2CCCC2)c(C)o1	106	i	0.99	0	nt	8	119
CCOc1ccc2nc(N3CCC(C(=O)N4CCN(C5CCCCC5)CC4)CC3)sc2c1	110	i	1.3	-3	0.2	nt	nt
Cc1csc(NC(=O)c2sc3nc(-c4cccs4)ccc3c2N)n1	103	i	0.83	4	0.0	-23	86

Next part:
SMILES	RGS16-Gao	HSV augment	HSV augment primary fold	PKD1 kinase inh	GALR2 ag	Insulin prom inh	Insulin prom inh cell count
Cc1nc(-c2cn[nH]c2-c2ccc(O)cc2O)cs1	100	i	0.97	4	0.3	29	87
CC(NCc1cc(Br)ccc1OCC(=O)NCc1ccccc1)c1ccccc1 (stereo unspecified)	95	i	0.98	0	nt	-29	151
CCOc1ccc(N(CC(=O)NCC(C)C)S(C)(=O)=O)cc1	100	i	1.1	4	-0.8	-33	114
COc1ccc(C(=O)Nc2cccnc2)cc1C(=O)Nc1cccnc1	38	i	1.1	-2	-1.6	-24	56
Cc1cc(C)c(S(=O)(=O)Nc2ccc(O)cc2)c(C)c1	293	i	0.92	1	-0.5	-73	63
O=C(CN(Cc1ccc(F)cc1)C(=O)c1ccco1)NCc1ccc(F)cc1	101	i	0.96	-9	0.6	-25	60
CC(C)N(C(=O)Nc1ccc2nsnc2c1)C(C)C	107	i	0.75	-1	nt	nt	nt
O=C(N/N=C/c1ccc([N+](=O)[O-])o1)c1cn2ccc3ccccc3c2n1	95	i	1.1	nt	nt	nt	nt
Cc1ccccc1C(=O)N1CCN(c2ccc([N+](=O)[O-])c(N3CCOCC3)c2)CC1	105	i	0.81	0	-0.9	29	92
CN(c1cccc(NC(=O)COc2ccc(Cl)cc2Cl)c1)S(C)(=O)=O	78	i	0.89	-4	-2.5	6	99
CCOC(=O)N1CCN(C(=O)/C=C/c2ccc([N+](=O)[O-])cc2)CC1	99	i	0.98	-7	nt	nt	nt
O=C(OCc1ccccc1)N1CCOCCN(C(=O)OCc2ccccc2)CCOCC1	100	i	0.96	-7	nt	-129	76
COC1=C(c2ccccc2)C(=O)c2ccccc2C1=O	91	i	0.99	-7	-1.1	nt	nt

In a second layout: four of the compounds above
Screens in order: RGS16-Gao | HSV augment | HSV augment primary fold | PKD1 kinase inh | GALR2 ag | Insulin prom inh | Insulin prom inh cell count
- O=C(CN(Cc1ccc(F)cc1)C(=O)c1ccco1)NCc1ccc(F)cc1
    101 | i | 0.96 | -9 | 0.6 | -25 | 60
- CC(C)N(C(=O)Nc1ccc2nsnc2c1)C(C)C
    107 | i | 0.75 | -1 | nt | nt | nt
- O=C(N/N=C/c1ccc([N+](=O)[O-])o1)c1cn2ccc3ccccc3c2n1
    95 | i | 1.1 | nt | nt | nt | nt
- Cc1ccccc1C(=O)N1CCN(c2ccc([N+](=O)[O-])c(N3CCOCC3)c2)CC1
    105 | i | 0.81 | 0 | -0.9 | 29 | 92

Pulled by structure from above (two):
SMILES	RGS16-Gao	HSV augment	HSV augment primary fold	PKD1 kinase inh	GALR2 ag	Insulin prom inh	Insulin prom inh cell count
COC1=C(c2ccccc2)C(=O)c2ccccc2C1=O	91	i	0.99	-7	-1.1	nt	nt
CN(c1cccc(NC(=O)COc2ccc(Cl)cc2Cl)c1)S(C)(=O)=O	78	i	0.89	-4	-2.5	6	99
